StopGo FLuc = Primary qHTS Assay for Foot and Mouth Disease Virus Antivirals against NCGC Sytravon and CBC Compound Libraries: Firefly Luciferase Signal. HEK cells with a luciferase reporter of 2A StopGo recoding. Potency, µM (top dose mostly 57.5 µM), for inactives: top-dose signal change, negative = less light. actives 0.23% (n = 120,000). AID 1745856, 2022; active = well fitted falling curve with a large enough effect; inconclusive = small, poorly fitted or top-dose-only effect; inactive = no such curve, though single readings can be large or run the other way; further: nearly all actives have a fitted effect of over 60% in size; overnight with compound
2A Renilla = Primary qHTS Assay for Foot and Mouth Disease Virus Antivirals against NCGC Sytravon and CBC Compound Libraries: Renilla Luciferase Signal | Potency, µM (series often up to 57.5 µM), for the others: at the top dose signal change, negative = less light | actives 0.32% (n = 120,000) | AID 1745857, 2022 | HEK cells with a luciferase reporter of 2A StopGo recoding; active means well fitted falling curve with a large enough effect; inconclusive means small, poorly fitted or top-dose-only effect; inactive means no such curve, though single readings can be large or run the other way; further: nearly all actives have a fitted effect of over 55% in size; overnight with compound
* hit, by the source's call; u = inconclusive; [ ] = remark or other dose. On the % scale 0 is the no-effect control and ±100 the full control effect; potency means the concentration at half of the fitted maximal effect.

Value order: StopGo FLuc	2A Renilla
- Cc1cccc(NC(=O)C(NS(=O)(=O)c2ccc3c(c2)oc(=O)n3C)C(C)C)c1 (stereo not given)
    -13%	4%
- COc1ccccc1CNc1nc2ccccc2nc1NS(=O)(=O)c1ccc(C)c(C)c1
    -3%	142%[activator]
- Cn1c(Oc2ccc(-c3ccc(Br)cc3)cc2)c(C#N)c(=O)n(C)c1=O
    0%	14%
- O=C(CCSCc1cccc(Cl)c1)NCc1ccc(F)cc1Cl
    -11%	2%
- COCC(=O)N(Cc1cccs1)C1CC1
    59%	39%
- O=C(NCc1ccc(C(F)(F)F)cc1)C1CCN(C(=O)/C=C/c2ccccc2)CC1
    0%	9%
- CC1(C)CS(=O)(=O)N(c2ccc(Cl)c(C(=O)Nc3cccc(C(F)(F)F)c3)c2)C1=O
    8%	4%
- CC(C)C(C)NC(=O)Nc1ccc(C(N)=O)c(Cl)c1 (stereo not given)
    25%	-2%
- CCCOc1cc(S(=O)(=O)N2CCN(CCO)CC2)ccc1Br
    -1%	-3%
- CSc1ccc(/C=C2\CCC(C3CCCC3)C2=O)cc1 (stereo not given)
    189%[activator]	33%
- Cc1ccc(OCCCCn2nnc3sc4c(c3c2=O)CCCC4)cc1
    -8%	-13%
- COc1ccccc1-c1ccc(=O)n(Cc2ccccc2F)n1
    -21%	u
- CC(C)CNC(=O)COC(=O)c1cc(-c2ccco2)nc2ccccc12
    0%	-13%
- COC(=O)c1cccc(NCc2ccc(C(F)(F)F)cc2)c1
    122%[activator]	13%
- CCC(C)NC(=O)c1ccc(CNC(=O)C2CCCC2)cc1 (stereo not given)
    -5%	-19%
- COC(=O)c1sc(NC(=O)c2cc3ccccc3o2)c(C#N)c1C
    19%	-6%
- O=C(CC(NC(=O)c1ccccc1)c1ccccc1)NCc1cccs1 (stereo not given)
    -11%	20%
- Cc1ccc2nc(-c3ccccc3)cc(C(=O)N3CCN(C(=O)c4ccco4)CC3)c2c1
    64%[activator]	11%
- Cc1ccccc1Cn1c(=O)n(CCCC(=O)NCc2ccc3c(c2)OCO3)c(=O)c2ccccc21
    -12%	-3%
- Cc1[nH]n(-c2ccccc2)c(=O)c1C(c1cc(Cl)ccc1O)c1c(C)[nH]n(-c2ccccc2)c1=O
    50%[activator]	21%
- CCOc1ccccc1NS(=O)(=O)c1ccc(-c2cnc(C)o2)cc1
    -1%	107%[activator]
- Cc1ccc(C)c(NC(=O)C(C)n2c(=O)cc(C(F)(F)F)c3c(C)nn(C)c32)c1 (stereo not given)
    -5%	-6%
- COc1cc2c(cc1OC)-c1c(c(C(=O)NCCN3CCOCC3)nn1-c1ccccc1F)C2
    132%[activator]	0%
- O=C(CCn1c(=O)c2sccc2n(Cc2ccccc2F)c1=O)NCc1ccc2c(c1)OCO2
    10%	-2%
- CCCc1nnc(NC(=O)Cn2ccc3ccc(Cl)cc32)s1
    -11%	-11%
- CC(NC(=O)/C(C#N)=C\c1ccc(C(C)(C)C)cc1)c1ccccc1 (stereo not given)
    2%	21%
- COc1cccc(-n2cc(C(=O)Oc3ccc(F)cc3)c3ccccc3c2=O)c1
    -28%	-3%
- CCCOc1ccc(CNC(=O)c2ccc3c(c2)N(Cc2ccccc2)CCS3)cc1
    0%	133%[activator]
- O=C(NNC(=O)C1CCOC1)c1cccc([N+](=O)[O-])c1 (stereo not given)
    1%	-16%
- O=S(=O)(Nc1cccc(-c2cn3ccccc3n2)c1)c1ccc(-c2ccccc2)cc1
    35%[activator]	166%[activator]
- O=c1nc2sc3ccccc3n2c(=O)n1-c1ccc(Cl)c(Cl)c1
    -9%	1%
- CCc1ccccc1N(C)C(=O)Cc1c(C(=O)O)c(C)cn1C
    7%	41%[activator]
- O=C(NCc1ccccc1)c1nn(-c2ccccc2)c(=O)c2ccccc12
    13%	22%
- CNC(=O)NCc1cccc(OC)c1
    -5%	-2%
- O=C(Nc1cc(F)cc(F)c1)c1n[nH]c(=O)c2ccccc12
    74%[activator]	-2%
- COc1ccc(CNC(=O)c2ccc3nc(CCc4ccccc4)oc3c2)c(OC)c1
    1%	-7%
- COc1ccc(NC(=O)c2sc3nc4c(cc3c2N)CCCCCC4)cc1Cl
    1%	-1%
- Cc1oc2ccc(O)c(CN3CCOCC3)c2c1C(=O)Nc1cccc(Cl)c1C
    -13%	-9%
- Cc1ccc(C(=O)N2CCC(N3CCN(Cc4ccc(F)cc4)C(=O)C3=O)CC2)cc1
    -7%	-17%
- O=C(COC(=O)c1cc2ccccc2oc1=O)Nc1ccc(I)cc1
    1%	1%
- Cc1ccc(CCC(=O)NC2CC3CCC2C3)cc1 (stereo not given)
    46%[activator]	11%
- O=c1oc2ccccc2cc1-c1nc(-c2ccc(Cl)cc2)cs1
    7%	-6%
- Cc1c(-c2ccccc2)nc2ccccc2c1C(=O)NC1CC1
    7%	1%
- CCOC(=O)N1CCC2(CC1)OC(=O)C(C)=C2C(=O)NCc1ccccc1OC
    -9%	-8%
- COc1cc(C)c(C(C)C)cc1S(=O)(=O)N1CCC(C)CC1
    3%	181%[activator]
- Cc1cc(N2CCOCC2)nc2ccc(NC(=O)NC(C)C)cc12
    29%	12%
- COc1cccc(-n2c(=O)c3sc4ccccc4c3n(Cc3c(F)cccc3Cl)c2=O)c1
    28%	-10%
- Cc1ccc(NC(=O)C(=O)NCC(c2cccnc2)N2CCN(Cc3ccccc3)CC2)cc1C (stereo not given)
    -12%	-16%
- N#Cc1cccc(/C=C/C(=O)c2cccc(N3CCOCC3)c2)c1
    46%[activator]	4%
- COc1ccc(N(CC(=O)N2CCN(c3ccc(F)cc3)CC2)S(=O)(=O)c2c(C)n[nH]c2C)cc1
    -17%	4%
- CC1(C)[C@H](C(=O)O)N2C(=O)C[C@H]2S1(=O)=O
    -21%	-13%
- Cc1cccc(Cn2c(COc3ccc(Cl)cc3)nc3ccccc32)c1
    59%[activator]	26%
- O=C(Cn1c(-c2cccs2)cc2cc(F)ccc21)NCCCN1CCN(c2ccc(F)cc2)CC1
    -18%	-11%
- CC1Cc2cc(S(=O)(=O)NCCC(=O)N(C)Cc3ccco3)ccc2N1C(=O)C1CC1 (stereo not given)
    8%	59%[activator]
- CCOC(=O)Nc1ccc(N2CCn3c(nc4ccccc43)C2)cc1
    34%[activator]	u
- CC(NC(=O)C(=O)Nc1cc(Cl)ccc1Cl)c1ccccc1 (stereo not given)
    0%	18%
- Cc1ccc(C)c(NC(=O)CCc2c(C)n(C)c3cc(-c4ccccc4C)nn3c2=O)c1
    -1%	-5%
- COC(=O)CC(NC(=O)C12CC3CC(CC(C3)C1)C2)C(=O)OC (stereo not given)
    4%	5%
- Cc1ccc(C)c(S(=O)(=O)NCCc2ccc(Cl)cc2)c1
    33%[activator]	174%[activator]
- CCOC(=O)c1nc(NCc2ccc(OC)cc2)c2ccccc2n1
    -4%	-11%

Sorted by length of the SMILES (lowest first): part of the list above
Value order: StopGo FLuc	2A Renilla
- Cc1ccc(C)c(S(=O)(=O)NCCc2ccc(Cl)cc2)c1
    33%[activator]	174%[activator]
- CCOC(=O)Nc1ccc(N2CCn3c(nc4ccccc43)C2)cc1
    34%[activator]	u
- COC(=O)CC(NC(=O)C12CC3CC(CC(C3)C1)C2)C(=O)OC (stereo not given)
    4%	5%
- Cc1ccc(NC(=O)C(=O)NCC(c2cccnc2)N2CCN(Cc3ccccc3)CC2)cc1C (stereo not given)
    -12%	-16%
- COc1ccc(N(CC(=O)N2CCN(c3ccc(F)cc3)CC2)S(=O)(=O)c2c(C)n[nH]c2C)cc1
    -17%	4%

More results follow:
Value order: StopGo FLuc	2A Renilla
- COc1ccc2cc1Oc1cc3c(cc1OC)CC[N+](C)(C)[C@H]3Cc1ccc(cc1)Oc1c(OC)c(OC)cc3c1[C@@H](C2)[N+](C)(C)CC3
    -11%[11.5 µM]	-12%
- CC(C)CCn1nc(C(=O)NCc2ccc(F)cc2)c2ccccc2c1=O
    -11%	28%
- Cc1ccccc1-c1noc(-c2cccnc2N(C)Cc2ccc(Cl)cc2)n1
    3%	-20%
- CCONC(=O)c1ccc2c(c1)NC(=O)CS2
    46%[activator]	32%[activator]
- CCCCCNCc1ccc(C)s1
    0%	0%
- CCn1c(SCC(=O)Nc2ccccc2C)nc2nc3c(cc2c1=O)COC(C)(C)C3
    -9%	-12%
- COc1cccc(-c2nc(CC(=O)NC3CCN(Cc4ccccc4)CC3)cs2)c1
    -4%	-14%
- CCCCn1c(SCC(=O)c2cc(C)n(C3CC3)c2C)nc2cc(S(N)(=O)=O)ccc21
    61%[activator]	-9%
- Cc1cc(C)c2c(CC(=O)N(Cc3ccc(Cl)cc3)Cc3ccco3)coc2c1
    0%	0%
- COc1ccc(C2=NO[C@@](CC(=O)O)(C(=O)Nc3ccc(C(C)=O)cc3)C2)cc1
    -6%	-9%
- O=C(CCn1c(=O)oc2cc(Cl)ccc21)Nc1ccc(-c2nnc3n2CCCCC3)cc1
    -8%	5%
- O=C(CCCNc1nc(Cl)nc2nc[nH]c12)NC1CC1
    12%	3%
- O=C(CN1CCc2ccccc21)NC1CCCc2ccccc21 (stereo not given)
    1%	19%
- Cc1ccc(-c2nnn(CC(=O)N(CC(=O)NCCC(C)C)c3ccc(F)cc3)n2)cc1
    -13%	-1%
- CC1CCc2c(c(-c3ccccc3O)nc3ccc4ccccc4c23)C1 (stereo not given)
    19%	-4%
- CC(C)c1nnc(NC(=O)c2nc(S(=O)(=O)Cc3ccccc3)ncc2Cl)s1
    37%[activator]	7%
- CN(CC(=O)Nc1ccc(Cl)c(C(F)(F)F)c1)C(=O)CN1CCCCC1
    -11%	-12%
- COc1ccc(Cl)cc1NC(=O)Cn1c(=O)n(-c2ccc(C)cc2)c(=O)c2ccc(C(=O)NCc3ccccc3Cl)cc21
    -15%	-14%
- CCn1cc(S(=O)(=O)N2CCN(c3ccccc3)CC2)cn1
    -9%	-8%
- Cn1c(=O)c2c(ncn2CC(=O)NCCc2ccc(Cl)cc2)n(C)c1=O
    18%	-2%
- O=C(COC(=O)c1cc2ccccc2[nH]1)c1ccccc1
    207%[activator]	7%
- CCCN(CCC)C(=O)Cn1c(=O)n(-c2ccc(Cl)c(Cl)c2)c(=O)c2c(C)c(C(=O)N(C)C)sc21
    -16%	-10%
- Cc1cc(NC(=O)[C@@H]2CCCN2S(=O)(=O)c2ccc3c(c2)OCO3)no1
    3%	10%
- COc1c(Cl)cc(C(N)=O)cc1Cl
    4%	-13%
- CCCc1cc(=O)oc2cc(OCC(=O)NCc3cccnc3)c(Cl)cc12
    6%	7%
- COc1ccc(NC(=O)c2ccco2)cc1NC(=O)COc1cc(C)cc(C)c1
    11%	-3%
- S=C(Nc1ccc(Cl)cc1)NC1CC1
    6%	0%
- CSc1ccc(C2C(C#N)=C(N)Oc3c2ccc2ccccc32)cc1 (stereo not given)
    133%[activator]	58%[activator]
- COc1ccc(Nc2oc(COc3ccc(OC)cc3)nc2C#N)cc1
    u	-18%
- COc1cccc(C(=O)Nc2cccc(NC(=O)c3ccc(Cl)cc3Cl)c2)c1
    -22%	-27%
- Cc1cc(-c2c(C)n([O-])c(C)c(C)[n+]2=O)ccc1F
    -4%	2%
- O=C(COc1ccc(F)cc1)N1CCN(Cc2cc(=O)n3nc(-c4ccc(F)cc4)sc3n2)CC1
    3%	-9%
- O=C(c1cccs1)N(c1ccc(Br)cc1)C1C=CS(=O)(=O)C1 (stereo not given)
    -8%	-9%
- O=C(O)C12CC3(Br)CC(Br)(CC(Br)(C3)C1)C2
    1%	-12%
- COc1ccc(C2CC(=O)NC(SCC(=O)Nc3cc(Cl)cc(Cl)c3)=C2C#N)cc1OC (stereo not given)
    17%	-16%
- COc1ccc(-c2coc3cc(OCC(=O)N4CCN(c5ccc(F)cc5)CC4)ccc3c2=O)cc1
    13%	5%
- COc1ccc(NC(=O)c2sc3nc(C)c(C(=O)Nc4ccc(C)cc4C)c(-c4sccc4C)c3c2N)cc1
    -9%	2%
- CC1CCC(C(C)C)C(OC(=O)COC(=O)c2ccc(CSc3ccc(Cl)cc3)cc2)C1 (stereo not given)
    -2%	10%
- O=C(COC(=O)c1cccc(S(=O)(=O)N2CCc3ccccc32)c1)Nc1ccc2c(c1)OCCO2
    11%	2%
- Cc1cc2c(cc3c(SCc4nc(-c5ccccc5)oc4C)nnc(C)n32)o1
    24%	-7%
- COC(=O)c1cn(C(=O)c2cccc3ccccc23)c2ccccc12
    0%	37%[activator]
- CNC(=O)C1CCCC1
    11%	15%
- Cc1ccc(-c2nc(Cn3cnc(C#N)n3)co2)cc1
    -6%	-23%

Seven of these compounds in a different format.
Compound	StopGo FLuc	2A Renilla
Cc1cc2c(cc3c(SCc4nc(-c5ccccc5)oc4C)nnc(C)n32)o1	24%	-7%
COc1ccc(-c2coc3cc(OCC(=O)N4CCN(c5ccc(F)cc5)CC4)ccc3c2=O)cc1	13%	5%
O=C(COc1ccc(F)cc1)N1CCN(Cc2cc(=O)n3nc(-c4ccc(F)cc4)sc3n2)CC1	3%	-9%
Cc1cc(-c2c(C)n([O-])c(C)c(C)[n+]2=O)ccc1F	-4%	2%
Cc1ccc(-c2nc(Cn3cnc(C#N)n3)co2)cc1	-6%	-23%
O=C(c1cccs1)N(c1ccc(Br)cc1)C1C=CS(=O)(=O)C1 (stereo not given)	-8%	-9%
CC1CCC(C(C)C)C(OC(=O)COC(=O)c2ccc(CSc3ccc(Cl)cc3)cc2)C1 (stereo not given)	-2%	10%

An excerpt; rates above refer to the full screens.
